TRPV1 PAM = human TRPV1 potentiation; Q8NER1; TRPV1-expressing cells, Fluo-8 calcium influx, capsaicin EC20 potentiation; host cell line not named in the record; control for the full effect not named in the record; potentiation, % at 8.33 µM; actives 0.02% (n = 320,000); AID 540277; active means potentiation above 80%; inconclusive means 30% to 80%; inactive means below 30%; also: 0% is about no effect
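Fluo-8 calcium influx in TRPV1-expressing cells, kinetic read (ex 480/em 520 nm). Compound added and read 3 min for agonist activity, followed by capsaicin at EC20 final and 2 min further read for enhancement.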
CtBP-E1A inh = blocks the CtBP interaction with E1A. AlphaScreen GST-E1A/His-CtBP binding, 1536-well; hits give low values; control for the full effect not named in the record. activity change, % (no concentration beside the values). actives 0.49% (n = 340,000). AID 651724; in the data active means activity change below about -65%; inconclusive means about -30% to -65%; inactive means above about -30%; also: % is scaled to controls: 0 for no effect and ±100 for the full control effect; compound concentration not given in the record
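AlphaScreen with 125 nM GST-E1A and 125 nM His-CtBP (5X stocks) in Tris pH 8.0, 300 mM NaCl, BSA, Tween 20, TCEP. Compounds preincubated 2 h at 37 deg C, then glutathione donor/nickel acceptor beads added for 1 h at 37 deg C in dark.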
TRPML1 ag = activates the human TRPML1 channel | actives 0.12% (n = 410,000) | activation, % (concentration not given with the values) | TRPML1-expressing cells, Ca2+ dye fluorescence, FDSS; host cell line not named in the record; reference of the full effect not given here; in the data active = activation above about 50%; inconclusive = about 30% to 50%; inactive = below about 30%; also: 0% is about no effect; the text of the record puts the active cut at 80%
Target sequence (Q9GZU1 whole entry, looked up): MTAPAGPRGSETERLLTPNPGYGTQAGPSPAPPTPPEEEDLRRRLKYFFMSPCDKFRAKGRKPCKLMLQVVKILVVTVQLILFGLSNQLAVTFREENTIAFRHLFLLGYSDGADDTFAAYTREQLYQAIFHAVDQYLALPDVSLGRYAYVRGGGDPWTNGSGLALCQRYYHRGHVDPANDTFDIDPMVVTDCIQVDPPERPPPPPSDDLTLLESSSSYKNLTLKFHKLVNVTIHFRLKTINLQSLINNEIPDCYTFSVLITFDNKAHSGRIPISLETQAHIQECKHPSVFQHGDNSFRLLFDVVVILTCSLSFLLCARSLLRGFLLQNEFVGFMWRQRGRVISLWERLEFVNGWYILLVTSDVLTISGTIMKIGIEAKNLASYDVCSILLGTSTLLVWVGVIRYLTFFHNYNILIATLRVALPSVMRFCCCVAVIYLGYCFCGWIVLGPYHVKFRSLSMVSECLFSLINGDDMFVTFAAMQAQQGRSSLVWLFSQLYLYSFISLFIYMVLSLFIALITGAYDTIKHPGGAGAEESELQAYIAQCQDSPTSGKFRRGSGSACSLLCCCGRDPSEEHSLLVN
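TRPML1-DL cells, Tet-induced overnight (~16 h, 37 degrees C), loaded 45-90 min at room temperature with Ca8 no-wash calcium dye plus quencher. FDSS fluorescence: 10 s baseline, compound pin-transfer, 110 s agonist read, then EC80 54-4 (4uM final) and 110 s antagonist read.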
TRPML1 blocker = human mucolipin-1 channel inhibition | TRPML1-inducible cells, Ca2+ dye fluorescence, FDSS; hits give low values; inhibition of EC80 agonist-evoked calcium signal | Q9GZU1 | actives 0.02% (n = 390,000) | activity change, negative = inhibition, % (no concentration beside the values); in the data active means activity change below about -50%; inconclusive means about -30% to -50%; inactive means above about -30%;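 also: stimulus is agonist 54-4 at its EC80 concentration; % is scaled to controls: 0 for no effect and ±100 for the full control effect; compound concentration not given in the record; the text of the record puts the active cut at -80%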
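Calcium fluorescence in TRPML1-DL cells induced overnight with Tet: a 110 s read after compound pin addition, then a 110 s antagonist read after challenge with 54-4 at 4 uM final (EC80).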
D2 PAM = positive allosteric modulators of human D2 dopamine receptor | P14416 | DiscoveRx D2 beta-arrestin cells, luminescence, 90 min; 100% = 57 uM dopamine signal | potentiation, % (no concentration beside the values) | actives 0.23% (n = 360,000); active = potentiation of 50% or more; inconclusive = 30% to 50%; inactive = 30% or less;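 also: compound concentration not given in the record; tested on top of an EC20 dose of dopamine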
Target sequence (P14416 whole entry, looked up): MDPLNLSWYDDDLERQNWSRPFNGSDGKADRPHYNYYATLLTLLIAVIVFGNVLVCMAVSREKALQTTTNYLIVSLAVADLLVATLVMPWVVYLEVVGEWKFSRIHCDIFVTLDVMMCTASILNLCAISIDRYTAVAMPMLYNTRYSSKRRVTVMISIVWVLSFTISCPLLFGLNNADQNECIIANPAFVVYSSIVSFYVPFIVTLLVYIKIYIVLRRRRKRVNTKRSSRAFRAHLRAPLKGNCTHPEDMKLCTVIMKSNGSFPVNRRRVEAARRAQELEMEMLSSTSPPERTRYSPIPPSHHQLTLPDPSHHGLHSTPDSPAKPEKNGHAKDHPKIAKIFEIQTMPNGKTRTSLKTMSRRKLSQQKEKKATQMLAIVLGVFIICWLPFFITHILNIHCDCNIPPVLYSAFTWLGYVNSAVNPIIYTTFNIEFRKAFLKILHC
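PathHunter D2 cells, attached overnight at 37 deg C, received compound in DMSO plus dopamine at EC20 (50 nM final) for 90 min at 37 deg C. Beta-arrestin recruitment was read as luminescence after 1 h with detection reagent at ambient temperature.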
Six1-Eya2 inh = inhibitors of human Six1/Eya2 interaction | AlphaScreen GST-Six1/His-Eya2 binding, biochemical; hits give low values; control for the full effect not named in the record | AID 651725 | actives 0.56% (n = 360,000) | activity change, % (concentration not given with the values) | Q15475+O00167; in the data active = activity change below about -65%; inconclusive = about -30% to -65%; inactive = above about -30%; also: % is scaled to controls: 0 for no effect and ±100 for the full control effect
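GST-Six1 + His-Eya2 (5X stock: 250/500 nM); Tris pH 8.0, 300 mM NaCl, 0.05% BSA, 0.02% Tween 20; GSH donor/Ni acceptor beads; 1 h 37 °C dark; AlphaScreen readout.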
Numbers without * were called inactive; ? = inconclusive; . = not tested or not shown.

SMILES	TRPV1 PAM	CtBP-E1A inh	TRPML1 ag	TRPML1 blocker	D2 PAM	Six1-Eya2 inh
Cc1ccc2[nH]c3c(c2c1)SC(C)(C)CC3=O	-13	.	1.6	13	?	3
O=C(NCCO)c1ccc2nc(Cc3cccc(Cl)c3)oc2c1	-8	13	-0.4	-12	-10	1
CCCCn1c(C(C)O)nc2ccccc21 (stereo not given)	29	12	0.0	6	-7	-2
COc1cc(NC(=O)c2ccccc2Cl)c(OC)cc1NC(=O)CN1CCOCC1	23	5	-1.2	3	-8	4
CCOC(=O)CC1C(=O)NCCN1S(=O)(=O)c1ccc(Br)cc1 (stereo not given)	9	5	0.2	-5	-12	6
CCOC(=O)C1CCN(S(=O)(=O)c2ccc(NC(=O)OC)cc2)CC1	-5	-2	-0.4	1	-2	0
CCCCCC(=O)NC(=S)NNC(=O)CC	8	13	-0.4	8	-6	-4
COc1ccc(OC)c(-n2nnnc2SCC(=O)Nc2ccc(C(=O)N3CCCCC3)cc2)c1	17	14	0.2	-13	-10	0
O=c1cc(NC2CCCCC2)c2ccccc2o1	-15	0	0.1	-26	-14	-3
COc1ccc(C(=O)C2CCN(C(=O)Nc3ccc(C)cc3)CC2)cc1	-4	19	-1.2	25	-4	0
CCc1cccc2sc(NC(=O)C3CC3)nc12	-17	1	0.0	-5	0	-4
O=C(C1=C(O)C(=O)N(c2nc3ccc(Cl)cc3s2)C1c1ccco1)c1ccco1 (stereo not given)	-9	-12	-0.2	3	-3	-26
CCOC(=O)C1C(=O)Nc2nc(C)nn2C1c1ccccc1 (stereo not given)	-6	0	-0.4	-9	-13	4
Cc1cccc(C2N(c3ccc(F)cc3)C(=O)C3CCCN32)c1 (stereo not given)	.	2	-0.2	-12	-1	-2
Cc1ccc(NC(=O)CSc2nc(N)cc(N)n2)cc1S(=O)(=O)N1CCOCC1	2	-11	-0.6	4	3	16
CCCC(=O)NC(c1ccc(N(C)C)cc1)c1c(O)ccc2ccccc12 (stereo not given)	10	-26	-0.7	-5	-14	-12
Cc1ccc2nc(SCC(=O)N(CC(C)C)c3c(N)n(CC(C)C)c(=O)[nH]c3=O)[nH]c2c1	25	3	0.3	1	0	5
CCn1c(CCC(=O)N(C)CC(=O)Nc2cccc(F)c2)nc2cc(S(=O)(=O)N(C)C)ccc21	6	10	0.0	12	-15	-5
Cn1c2c(c(=O)n(C)c1=O)C(c1cc3c(cc1Br)OCO3)CC(=O)N2 (stereo not given)	-1	7	-0.3	-4	-7	2
CCCNc1cc(C)c(C#N)c2nc3ccccc3n12	-3	0	-0.9	0	6	1
CCN(C=NC1=NN(c2cccc(C(F)(F)F)c2)CC1)CC	-6	-15	1.9	-23	-6	?
COc1ccccc1C(=O)COC(=O)Cc1n[nH]c(=O)c2ccccc12	-14	1	-0.4	-5	-1	-3
COc1ccc(S(=O)(=O)NC2CC3CCC2C3)cc1 (stereo not given)	19	-18	-0.1	-11	-3	3
CCCCCNC(=O)c1[nH]c(C(F)(F)F)nc1-c1ccccc1	.	-6	0.3	6	-1	-12
Cc1[nH]c(=S)[nH]c(=O)c1Cc1c(O)ccc2ccccc12	.	-12	0.9	6	25	1

Next structures.
SMILES	TRPV1 PAM	CtBP-E1A inh	TRPML1 ag	TRPML1 blocker	D2 PAM	Six1-Eya2 inh
COc1ccc(S(=O)(=O)N2CCN(C(=O)C3CC3)CC2)cc1Br	-17	4	0.1	-7	-1	-1
CC(=O)CSc1nnc(-c2ccc(S(=O)(=O)N3CCCC3)cc2)n1C	6	-1	-0.4	3	-1	-3
O=C1Cc2ccccc2C(=O)N1OCc1ccc(Cl)cc1	-1	3	-0.5	-1	-8	20
Cn1c(N=Nc2ccc(N3CCOCC3)cc2)[n+](C)c2ccccc21	6	-9	-1.0	-2	-24	?
COc1ccc(CCNC(=O)CSC2=NS(=O)(=O)c3ccccc3N2)cc1OC	10	-12	0.1	-3	-17	7
NC(=O)N/N=C/c1cn(-c2ccccc2)nc1-c1cccnc1	?	4	-0.2	-7	-7	0
COc1ccc(Cn2c(C)ccc2C)cc1	9	4	-0.6	3	-3	-9
Cc1cc(C(=O)NC2CCCc3c2cnn3-c2ccc(C(C)(C)C)cc2)nn1C (stereo not given)	-8	-5	1.2	28	-8	-6
N#CC1=C(N)Oc2n[nH]c(-c3cccs3)c2C1C1CCCCC1 (stereo not given)	4	-6	0.9	94	-5	-9
COc1cccc(C(=O)NC2CCN(CC(=O)Nc3ccccc3Cl)CC2)c1	2	1	-0.7	14	-12	2
COc1ccc(CC(=O)NC(C)CCc2ccccc2)cc1OC (stereo not given)	-10	0	-1.3	-3	-2	8
Cc1cccc(/C=N/n2c(C)cc(C)c(C#N)c2=O)c1	-1	42	0.0	23	1	2
CSc1cccc(N2CC(C(=O)N3CCN(S(=O)(=O)c4ccccc4Cl)CC3)CC2=O)c1 (stereo not given)	.	.	0.4	-9	-3	0
CC(=O)NC(CC(=O)N1CCCC1)c1ccccc1 (stereo not given)	.	0	0.0	-7	4	4
C/C(=N\Nc1nc(C)cc(-c2ccccc2)n1)c1ccc(O)cc1	-14	-1	1.1	-9	3	-3
COCCCNC(=O)C1CCN(c2ncccn2)CC1	2	5	-0.4	80	-2	0
O=c1[nH]c2cc3c(cc2cc1CN(Cc1cccnc1)C(=S)NCc1ccco1)OCO3	11	-3	-0.7	-12	-12	-2
O=C(CSc1ccccc1Cl)N1CCOCC1	12	.	1.9	6	-8	15
COC(=O)c1ccc(NC(=O)Cn2nc(C)c3ccccc3c2=O)cc1	30	10	-0.7	4	-14	-9
CCC(=O)OCC(=O)Nc1cc([N+](=O)[O-])ccc1OC	2	2	0.4	-7	0	-1
CCCCC(C)Sc1nc2c([nH]1)c(=S)n(C)c(=O)n2C (stereo not given)	.	-8	3.5	17	-41	-4
Cc1cc([N+](=O)[O-])ccc1NC(=O)/C=C/c1cccs1	3	-1	-0.5	0	-27	-5
COc1ccc(CCNS(=O)(=O)c2ccc3c(c2)NC(=O)C(C)S3)cc1OC (stereo not given)	2	0	-0.5	-3	-8	6
CCCCOC(=O)c1cccc(NC(=O)CC)c1	-9	-3	-0.1	-12	-20	4
COc1ccc(OC)c(CNC(=O)CCSCc2ccc(F)cc2Cl)c1	-27	.	3.0	6	-10	-1

Entries of single compounds, quoted from the list. Screens in order: TRPV1 PAM	CtBP-E1A inh	TRPML1 ag	TRPML1 blocker	D2 PAM	Six1-Eya2 inh
Cc1cccc(/C=N/n2c(C)cc(C)c(C#N)c2=O)c1 is listed with -1	42	0.0	23	1	2
CCCCOC(=O)c1cccc(NC(=O)CC)c1 is listed with -9	-3	-0.1	-12	-20	4

New compounds follow.
SMILES	TRPV1 PAM	CtBP-E1A inh	TRPML1 ag	TRPML1 blocker	D2 PAM	Six1-Eya2 inh
CN(c1ccccc1)S(=O)(=O)c1cccc(C(=O)N2CCN(c3ccccn3)CC2)c1	4	-10	-0.6	69	4	-13
Cc1ccc(Cl)cc1-c1cc(C(=O)NCc2cc(C(F)(F)F)cc(C(F)(F)F)c2)[nH]n1	.	10	0.5	.	-8	2
O=C1c2ccsc2SCCN1Cc1ccc(Cl)cc1Cl	-6	0	3.0	-9	-12	0
Cc1ccccc1NC(=O)CN1C(=O)NC2(CCCCC2)C1=O	5	-2	0.6	-6	-3	16
Cn1nc(C(=O)OCC(=O)NCc2ccc(Cl)cc2Cl)c2ccccc2c1=O	.	-24	0.8	42	-8	1
Cc1cc(C)c2c(n1)SCC(=O)N2CC(=O)NCCC1=CCCCC1	11	2	-0.5	17	-6	1
O=C(/C=C/c1ccc([N+](=O)[O-])cc1)OCc1cnc(-c2ccccc2)o1	-4	18	-0.5	7	11	-3
Cc1cccc(N2CCN(S(=O)(=O)c3ccc4c(c3)NC(=O)CS4)CC2)c1C	-12	-4	2.3	-10	-3	-5
Cc1ccc(-c2noc(=O)n2CC(=O)Nc2ccc(S(=O)(=O)NC3CC3)cc2)cc1	-7	1	4.9	-5	13	3
CN(Cc1ccccc1)C(=O)CCNC(=O)Cn1cnc2ccccc2c1=O	11	4	2.5	6	9	-1
CC(O)(CS(=O)(=O)Cc1ccccc1)c1ccccc1Cl (stereo not given)	-19	4	1.2	6	-1	0
O=C(CCC1CCCC1)NNC(=O)c1ccccc1O	-2	3	0.0	14	-13	-6
COc1ccc(NC(=S)NC(=O)C2CCC2)cc1	-5	8	0.3	-8	-10	0
O=C(CSc1ccc(-c2ccco2)nn1)N1CCCC1	-16	-7	-0.6	-17	2	6
O=C(Oc1ccc2[nH]cc(CCN3C(=O)c4ccccc4C3=O)c2c1)c1ccco1	12	11	-0.1	37	-16	-14
Cc1cccc(NC(=O)CSc2nnc(CCCCCNC(=O)OC(C)(C)C)o2)c1C	-4	1	-0.3	8	16	-3
Cn1c(SCC(=O)c2cc3ccccc3o2)nnc1-c1ccccc1	?	-10	-0.1	12	-10	2
CCn1c(COc2cccc(OC)c2)nnc1SCC(=O)N1CCOCC1	6	1	-0.2	2	-1	2
O=C(CSc1nnc(CNC(=O)c2ccccc2F)o1)c1ccc(Cl)cc1	12	-17	-0.1	8	11	-12
CSCCC1NC(=O)N(CC(=O)Nc2ccc(N3CCCCC3)cc2)C1=O (stereo not given)	24	-4	-0.3	1	4	-8
O=C(Nc1nc(-c2nc3ccccc3s2)cs1)c1ccc(S(=O)(=O)N2CCOCC2)cc1	-3	-12	1.2	-6	16	-10
CC(=O)N1c2ccc(S(=O)(=O)N3CCCC(C(=O)NCc4ccccc4Cl)C3)cc2CC1C (stereo not given)	5	-5	0.1	7	-11	-4
COc1ccc2nc(C)cc(SCC(=O)N/N=C/c3ccc(O)cc3O)c2c1	12	-70*	0.7	17	1	-74*
COC(=O)c1ccccc1NC=C1C(=O)OC2(CCCCC2)OC1=O	19	-1	-1.3	-5	-3	2

Of the compounds above, 10 contain an NH in an aromatic ring:
SMILES	TRPV1 PAM	CtBP-E1A inh	TRPML1 ag	TRPML1 blocker	D2 PAM	Six1-Eya2 inh
Cc1ccc2[nH]c3c(c2c1)SC(C)(C)CC3=O	-13	.	1.6	13	?	3
Cc1ccc2nc(SCC(=O)N(CC(C)C)c3c(N)n(CC(C)C)c(=O)[nH]c3=O)[nH]c2c1	25	3	0.3	1	0	5
COc1ccccc1C(=O)COC(=O)Cc1n[nH]c(=O)c2ccccc12	-14	1	-0.4	-5	-1	-3
CCCCCNC(=O)c1[nH]c(C(F)(F)F)nc1-c1ccccc1	.	-6	0.3	6	-1	-12
Cc1[nH]c(=S)[nH]c(=O)c1Cc1c(O)ccc2ccccc12	.	-12	0.9	6	25	1
N#CC1=C(N)Oc2n[nH]c(-c3cccs3)c2C1C1CCCCC1 (stereo not given)	4	-6	0.9	94	-5	-9
O=c1[nH]c2cc3c(cc2cc1CN(Cc1cccnc1)C(=S)NCc1ccco1)OCO3	11	-3	-0.7	-12	-12	-2
CCCCC(C)Sc1nc2c([nH]1)c(=S)n(C)c(=O)n2C (stereo not given)	.	-8	3.5	17	-41	-4
Cc1ccc(Cl)cc1-c1cc(C(=O)NCc2cc(C(F)(F)F)cc(C(F)(F)F)c2)[nH]n1	.	10	0.5	.	-8	2
O=C(Oc1ccc2[nH]cc(CCN3C(=O)c4ccccc4C3=O)c2c1)c1ccco1	12	11	-0.1	37	-16	-14
